Screens deposited in PubChem by Fisher Drug Discovery Resource Center.
NPYLR7 agonist: activates Aedes aegypti NPYLR7 receptor | 0.15% of 270,000 active | HEK293T NPYLR7/Galpha15, GCaMP6s calcium fluorescence | activation, % at 10 µM | AID 1259423; in the data active = activation above about 40%;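 also: 0% = vehicle and 100% = reference agonist at the receptor; some compounds past the cut are filed as inactive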
NPYLR7 agonist max-min: second read-out of NPYLR7 agonist, no call of its own (marks repeat the call); activation, %; measured here: Max-Min RFU normalised activation; some inactives read as strong as hits;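 span of the calcium signal over five minutes; 0% = vehicle and 100% = native peptide agonist; compound fluorescence can raise it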
* hit, by the source's call; & = joins results of further samples.

Preview (two entries):
Screening O=C1OC(=O)C2C3CCC(O3)C12 (stereo not drawn) returned NPYLR7 agonist -11&1 and NPYLR7 agonist max-min -16&-21.
Screening O=c1cc(CO)occ1O returned NPYLR7 agonist -10 and NPYLR7 agonist max-min -23.

The whole of this part (from the top)
Screening O=C1OC(=O)C2C3CCC(O3)C12 (stereo not drawn) returned NPYLR7 agonist -11&1 and NPYLR7 agonist max-min -16&-21.
Screening O=c1cc(CO)occ1O returned NPYLR7 agonist -10 and NPYLR7 agonist max-min -23.
For Cc1nc2nc(N)nn2c(C)c1CCC(=O)NCCC(C)C the results were NPYLR7 agonist 5 and NPYLR7 agonist max-min 4.
For CCc1nc2ccc(C(=O)N3CCN(C)CC3)cn2c1N(CC)CC(=O)N(C)C the results were NPYLR7 agonist 11 and NPYLR7 agonist max-min 12.
Screening CC1CC(Nc2nc3c(c(=O)[nH]c(=O)n3C)n2CCCc2ccccc2)CC(C)(C)C1 (stereo not drawn) returned NPYLR7 agonist 2 and NPYLR7 agonist max-min -2.
For O=S(=O)(NCC1Cc2ccccc2O1)N1CCCCCC1 (stereo not drawn) the results were NPYLR7 agonist 3 and NPYLR7 agonist max-min -2.
`COCCNC(=O)C(NC(=O)c1ccccc1C)C1CCN(C(=O)c2ccc(Cl)cc2)CC1` (stereo not drawn) gave NPYLR7 agonist -2 and NPYLR7 agonist max-min -1.
Screening COCC(=O)Nc1ccc(C)cc1-c1nc(C2CC2)no1 returned NPYLR7 agonist -7 and NPYLR7 agonist max-min -6.
For Cc1ccc(NC(=O)Cn2nc(C3CC3)c3cnn(-c4ccccc4C)c3c2=O)cc1Cl the results were NPYLR7 agonist 5 and NPYLR7 agonist max-min 2.
Screening COc1cn(CC(=O)N2CCc3ccccc32)c(CSc2nnc(C)s2)cc1=O returned NPYLR7 agonist -8 and NPYLR7 agonist max-min -14.
NC(=O)c1ccccc1-c1cccc(C(=O)O)c1 was read as NPYLR7 agonist -1 and NPYLR7 agonist max-min -3.
O=C(NCc1cccnc1)c1cccc(Nc2c(Oc3ccc4c(c3)OCO4)cnn(-c3ccc(Cl)c(Cl)c3)c2=O)c1 was read as NPYLR7 agonist -2 and NPYLR7 agonist max-min 4.
For COc1ccccc1-n1ncc2c(C(C)C)n[nH]c(=S)c21 the results were NPYLR7 agonist -1 and NPYLR7 agonist max-min -3.
Screening CCCc1[nH]n(-c2ccc(Cl)cc2)c(=O)c1C1=C([n+]2ccccc2)C(=O)N(c2cccc(C)c2)C1=O returned NPYLR7 agonist -3 and NPYLR7 agonist max-min 5.
`Clc1cccc(Oc2cc(N3CCCCCC3)ncn2)c1` gave NPYLR7 agonist 7 and NPYLR7 agonist max-min 12.
For Cc1ccc(NC(=O)c2cccc(CN3C[C@H](OC(C)C)[C@@H](O)C3)c2)cn1 the results were NPYLR7 agonist 9 and NPYLR7 agonist max-min 5.
Screening Cc1ccc(CNC(=S)NC2CCCCC2)n1C returned NPYLR7 agonist -1 and NPYLR7 agonist max-min -2.
Screening COC(=O)c1nnn(-c2ccccc2)c1C(=O)OC returned NPYLR7 agonist 11 and NPYLR7 agonist max-min 14.
For CN(CCCC1CCCO1)Cc1ccc2c(c1)OCCO2 (stereo not drawn) the results were NPYLR7 agonist 1 and NPYLR7 agonist max-min 1.
Screening COc1ccc(Cn2cnc3c4cc(C)ccc4n(CC(=O)Nc4cccc(OC)c4)c3c2=O)cc1 returned NPYLR7 agonist -1 and NPYLR7 agonist max-min -8.
`c1ccc(CN(C2COC2)[C@@H]2C[C@H]3CCOC[C@@]3(c3ccccc3)C2)cc1` gave NPYLR7 agonist 18 and NPYLR7 agonist max-min 25.
`N[C@H](C(=O)O)c1ccc(O)c(C(=O)O)c1` gave NPYLR7 agonist -13 and NPYLR7 agonist max-min -21.
`c1cc(CSc2ccc(-c3ccc4c(c3)OCO4)nn2)ccn1` gave NPYLR7 agonist 12 and NPYLR7 agonist max-min 1.
COC(=O)C(=O)N1CCN(CC(OCc2cccc(C)c2)c2ccc(Cl)cc2)CC1 (stereo not drawn) was read as NPYLR7 agonist 5 and NPYLR7 agonist max-min 0.
For COCc1cc(C(=O)N2CCC3(CCNC(=O)CC3)CC2)ccc1OC the results were NPYLR7 agonist 0 and NPYLR7 agonist max-min -5.
`COc1cc(-c2cc(C)ccc2F)nc(N)n1` gave NPYLR7 agonist 4 and NPYLR7 agonist max-min 2.
COc1cccc(NC(=O)N(Cc2ccoc2)C2CCCCC2)c1 was read as NPYLR7 agonist 8 and NPYLR7 agonist max-min 3.
COc1ccccc1C=C1N=C(c2ccc3c(c2)OCO3)OC1=O was read as NPYLR7 agonist 6 and NPYLR7 agonist max-min 2.
Screening O=C(CN1CC2CN3CCCCC3C2C1)NCC1CC1 (stereo not drawn) returned NPYLR7 agonist 6 and NPYLR7 agonist max-min 5.
COc1ccccc1C1CC(c2cc(C)ccc2C)=NN1C(=O)CN1CCC2(CC1)OCCO2 (stereo not drawn) was read as NPYLR7 agonist 13 and NPYLR7 agonist max-min 11.
Cc1cccc(N(C)c2cc(Nc3ccc(Oc4ccccc4)cc3)nc3ccnn23)c1 was read as NPYLR7 agonist -2 and NPYLR7 agonist max-min -5.
COCCN(CC(=O)N(Cc1cccn1Cc1ccc(Br)cc1)C1CCCCC1)C(=O)c1cccc(OC)c1 was read as NPYLR7 agonist -1 and NPYLR7 agonist max-min 2.
`COCC(=O)Nn1cnc2c(cnn2-c2ccccc2)c1=O` gave NPYLR7 agonist 3 and NPYLR7 agonist max-min 1.
Screening COc1ccccc1C(C)NC(=O)CN1CCCC(C(=O)Nc2ccccc2)C1 (stereo not drawn) returned NPYLR7 agonist -1 and NPYLR7 agonist max-min -2.
`CCOC(=O)c1nn(-c2ccc(Cl)cc2)c(=O)c2c(NC(=O)COC)scc12` gave NPYLR7 agonist 7 and NPYLR7 agonist max-min 2.
Cc1cc(C)cc(C(C)NC(=O)NCc2c(C)noc2C)c1 (stereo not drawn) was read as NPYLR7 agonist -6 and NPYLR7 agonist max-min -8.
Screening FC(F)Oc1ccc(Cl)c2ccccc12 returned NPYLR7 agonist 22 and NPYLR7 agonist max-min 18.
`COCCOC1CCN(Cc2cn(C)nc2-c2ccc(C3CCCCC3)cc2)CC1` gave NPYLR7 agonist 5 and NPYLR7 agonist max-min 5.
Screening CC(N)C1CC2CCC1C2 (stereo not drawn) returned NPYLR7 agonist -5&0 and NPYLR7 agonist max-min -9&-3.
Screening O=C(COCc1ccccc1)N1CCN(C(c2ccccc2)c2ccc(Br)cc2)CC1 (stereo not drawn) returned NPYLR7 agonist -1 and NPYLR7 agonist max-min 9.
`CN1CCN(C(=O)c2ccc(-c3cccc(OC(F)(F)F)c3)nc2N2CCOCC2)CC1` gave NPYLR7 agonist 16 and NPYLR7 agonist max-min 4.
Screening CCCCn1c(=N)c(C#N)cc2c(=O)n3cc(C)ccc3nc21 returned NPYLR7 agonist -2 and NPYLR7 agonist max-min -1.
CC(CC(=O)O)CC(=O)NC(C)(C)Cc1c[nH]c2ccccc12 (stereo not drawn) was read as NPYLR7 agonist -7 and NPYLR7 agonist max-min -15.
COc1cc2c(cc1OC)CN(c1cc(C(=O)NCc3cccc(C)c3)c3ccccc3n1)CC2 was read as NPYLR7 agonist 12 and NPYLR7 agonist max-min 5.
c1cc2nnnn2nc1NCCCN1CCCCC1 was read as NPYLR7 agonist 0 and NPYLR7 agonist max-min -2.
For COc1cc(C(=O)NC(C)c2ccc(O)c(F)c2)ccn1 (stereo not drawn) the results were NPYLR7 agonist -2 and NPYLR7 agonist max-min -6.
`CC/C(=N/NC(=O)COc1ccc([N+](=O)[O-])cc1)c1ccc(Br)s1` gave NPYLR7 agonist 2 and NPYLR7 agonist max-min 1.
`CN(C)C(=O)c1ccc(-c2cc3c(Nc4cccc(O)c4)nccc3n2C)cc1` gave NPYLR7 agonist -18 and NPYLR7 agonist max-min -18.
For CCOC(=O)N1CCN(C(=S)Nc2ccc(F)cc2)CC1 the results were NPYLR7 agonist 1 and NPYLR7 agonist max-min -1.
Screening N#Cc1ccc(CNc2cncc(Br)c2)cc1 returned NPYLR7 agonist 3 and NPYLR7 agonist max-min 2.
O=C(c1nc2ccccn2c1CNC[C@H]1C[C@H]2C=C[C@H]1C21CC1)N1CCCC1 was read as NPYLR7 agonist 2 and NPYLR7 agonist max-min 1.
For CC(=O)c1ccc(N2C[C@@H]3CN(c4ncccn4)C[C@]3(C(=O)O)C2)nc1 the results were NPYLR7 agonist 6 and NPYLR7 agonist max-min 0.
Screening CC(C)CN1C(=O)SC(Nc2ccccc2)C1=O (stereo not drawn) returned NPYLR7 agonist 16 and NPYLR7 agonist max-min 15.
Screening CCN1C(=O)NC(c2ccc(Cl)cc2)C(C(=O)OCCOc2ccccc2)=C1C (stereo not drawn) returned NPYLR7 agonist 1 and NPYLR7 agonist max-min -3.
Cc1cc(C)c2nc(N(CCn3cccn3)C(=O)c3cccc(F)c3)sc2c1 was read as NPYLR7 agonist -17 and NPYLR7 agonist max-min -20.
Cc1ccccc1C(=O)Nc1ccc(Nc2ccc(-n3cccn3)nn2)cc1 was read as NPYLR7 agonist -4 and NPYLR7 agonist max-min -10.
`Cc1ccc(-c2ccc(=O)n(CCCNC(=O)C3CC3)n2)cc1` gave NPYLR7 agonist -2 and NPYLR7 agonist max-min -3.
Screening CN1CCC(NC(=S)N2CCC(COc3ccccc3)CC2)CC1 returned NPYLR7 agonist 3 and NPYLR7 agonist max-min -2.
CCOC(=O)c1cc(-c2ccc(N3CCN(C(=O)c4cccs4)CC3)cc2)n(-c2ccc(F)cc2)n1 was read as NPYLR7 agonist 23 and NPYLR7 agonist max-min 15.
COc1cc(OC)cc(C(=O)N2CCC(n3c(=O)oc4ccc(C)cc43)CC2)c1 was read as NPYLR7 agonist 33 and NPYLR7 agonist max-min 27.

Sorted by formula weight (lowest first): 19 of the compounds above.
Screening CC(N)C1CC2CCC1C2 (stereo not drawn) returned NPYLR7 agonist -5&0 and NPYLR7 agonist max-min -9&-3.
c1cc2nnnn2nc1NCCCN1CCCCC1 was read as NPYLR7 agonist 0 and NPYLR7 agonist max-min -2.
Screening CC(C)CN1C(=O)SC(Nc2ccccc2)C1=O (stereo not drawn) returned NPYLR7 agonist 16 and NPYLR7 agonist max-min 15.
Screening N#Cc1ccc(CNc2cncc(Br)c2)cc1 returned NPYLR7 agonist 3 and NPYLR7 agonist max-min 2.
For COc1cc(C(=O)NC(C)c2ccc(O)c(F)c2)ccn1 (stereo not drawn) the results were NPYLR7 agonist -2 and NPYLR7 agonist max-min -6.
Screening CCCCn1c(=N)c(C#N)cc2c(=O)n3cc(C)ccc3nc21 returned NPYLR7 agonist -2 and NPYLR7 agonist max-min -1.
`Cc1ccc(-c2ccc(=O)n(CCCNC(=O)C3CC3)n2)cc1` gave NPYLR7 agonist -2 and NPYLR7 agonist max-min -3.
CC(CC(=O)O)CC(=O)NC(C)(C)Cc1c[nH]c2ccccc12 (stereo not drawn) was read as NPYLR7 agonist -7 and NPYLR7 agonist max-min -15.
Screening CN1CCC(NC(=S)N2CCC(COc3ccccc3)CC2)CC1 returned NPYLR7 agonist 3 and NPYLR7 agonist max-min -2.
For CC(=O)c1ccc(N2C[C@@H]3CN(c4ncccn4)C[C@]3(C(=O)O)C2)nc1 the results were NPYLR7 agonist 6 and NPYLR7 agonist max-min 0.
Cc1ccccc1C(=O)Nc1ccc(Nc2ccc(-n3cccn3)nn2)cc1 was read as NPYLR7 agonist -4 and NPYLR7 agonist max-min -10.
`CN(C)C(=O)c1ccc(-c2cc3c(Nc4cccc(O)c4)nccc3n2C)cc1` gave NPYLR7 agonist -18 and NPYLR7 agonist max-min -18.
Cc1cc(C)c2nc(N(CCn3cccn3)C(=O)c3cccc(F)c3)sc2c1 was read as NPYLR7 agonist -17 and NPYLR7 agonist max-min -20.
COc1cc(OC)cc(C(=O)N2CCC(n3c(=O)oc4ccc(C)cc43)CC2)c1 was read as NPYLR7 agonist 33 and NPYLR7 agonist max-min 27.
`CC/C(=N/NC(=O)COc1ccc([N+](=O)[O-])cc1)c1ccc(Br)s1` gave NPYLR7 agonist 2 and NPYLR7 agonist max-min 1.
`CN1CCN(C(=O)c2ccc(-c3cccc(OC(F)(F)F)c3)nc2N2CCOCC2)CC1` gave NPYLR7 agonist 16 and NPYLR7 agonist max-min 4.
COc1cc2c(cc1OC)CN(c1cc(C(=O)NCc3cccc(C)c3)c3ccccc3n1)CC2 was read as NPYLR7 agonist 12 and NPYLR7 agonist max-min 5.
Screening O=C(COCc1ccccc1)N1CCN(C(c2ccccc2)c2ccc(Br)cc2)CC1 (stereo not drawn) returned NPYLR7 agonist -1 and NPYLR7 agonist max-min 9.
CCOC(=O)c1cc(-c2ccc(N3CCN(C(=O)c4cccs4)CC3)cc2)n(-c2ccc(F)cc2)n1 was read as NPYLR7 agonist 23 and NPYLR7 agonist max-min 15.

The list goes on:
Screening Cc1ccc(Cn2c(=O)c(N(C)C)c(N)n(C)c2=O)cc1 returned NPYLR7 agonist 4&1 and NPYLR7 agonist max-min 7&11.
`O=C(NCc1ccc(Oc2ccccc2)cc1)c1sc2cc(F)ccc2c1Cl` gave NPYLR7 agonist -9 and NPYLR7 agonist max-min -11.
`Cc1cc(C)cc(OCCNC(=O)CSCC(N)=O)c1` gave NPYLR7 agonist 4 and NPYLR7 agonist max-min 2.
`Cc1[nH]c(C(=O)O)c(C)c1C(=O)O` gave NPYLR7 agonist 1 and NPYLR7 agonist max-min -3.
For O=S(=O)(c1cccs1)N1CCCCCC1 the results were NPYLR7 agonist 1 and NPYLR7 agonist max-min -1.
`N#CCOc1ccc2c(c1)[nH]c1ccccc12` gave NPYLR7 agonist 5 and NPYLR7 agonist max-min 5.
Screening CCOC(=O)Cn1c(=NC(=O)c2ccno2)sc2cc(F)cc(F)c21 returned NPYLR7 agonist -8 and NPYLR7 agonist max-min -13.

Some of the compounds tested; the hit share may differ from the screen's.
